# Screening results deposited in PubChem BioAssay by several laboratories.
# Vif A3G – inhibitors of Vif binding to APOBEC3G peptide, primary screen, biochemical, TR-FRET, GST-Vif 1-94, biotin-A3G peptide, dose response retest (AID 1117319). TR-FRET GST-Vif / biotin-A3G peptide binding; higher % means a stronger effect; test concentration not given here; strong numbers were not always called active. inhibition, %; hits with a dose series show IC50 in µM. actives 0.57% (n = 260,000);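 active means above the screen mean plus three standard deviations and confirmed in dose response; inconclusive means results disagree or hit not tested in dose response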;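 further: Vif residues 1-94 fused to GST binding biotinylated APOBEC3G peptide 110-148; 0% = full assay without inhibitor and 100% = GST in place of GST-Vif; retest series ran down from 100 µM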
# T cruzi repl – blocks replication of Trypanosoma cruzi; T. cruzi beta-gal in NIH3T3, luminescence, 90 h; inhibition, % (test concentration not listed); actives 1.4% (n = 300,000);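 active means mean inhibition across valid replicates above about 55%, limit read from the data; inconclusive means mean below that limit but half or more replicates reach it; inactive means mean below it, under half of replicates reach it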;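 further: signal also drops with host cell toxicity which is not excluded here; 0% = plate median of DMSO wells and 100% = zero luminescence signal; higher percent means less beta-gal luminescence so fewer parasites; stock transfer was 50 nL into about 50 µL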
# RanGTP-Impb inh – disruptors of Ran-importin-beta complex formation – biochemical, FRET, CFP-Ran, YFP-importin-beta, homogeneous, primary screen | cell-free CFP-Ran/YFP-importin-beta FRET ratio | inhibition, % (concentration not given with the values) | actives 1.1% (n = 300,000) | AID 2216;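 active means most replicates above 15%; inconclusive means exactly half above 15%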;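 further: 0% = DMSO wells and 100% = Ran loaded with GDP instead of GTP; wells of about 40 µL received 100 nL stock; the first replicate is given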
# Calb FLC – affects C. albicans growth with fluconazole; growth inhibition, % (test concentration not listed); C. albicans CaCi-2 (fluconazole-resistant clinical isolate) + fluconazole, Alamar Blue growth, 48 h; actives 0.57% (n = 300,000);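 active means most replicates above 75%; inconclusive means exactly half above 75%; inactive means most below 75%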;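 further: all wells also contain fluconazole at 8 µg/ml as a sub-toxic cotreatment; 0% = median of DMSO wells and 100% = median of geldanamycin control wells; wells of about 8 µL received 7.5 nL stock; the first replicate is given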
# rRNA inh HTS – inhibitors of bacterial rRNA selective over humanized ribosomes; E. coli WT GFP vs humanized-ribosome RFP mutants, fluorescence, 24 h; active compounds read low; DMSO median 0, no signal -100; GFP signal change (wild-type ribosome), % (concentration not given with the values); actives 1.6% (n = 350,000);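 active means significant combined selectivity score with lowered wild-type GFP, culture density cut under 30%, mutant RFP and density less affected; inactive means any of these conditions unmet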; further: one replicate is shown; some compounds called inactive have numbers as strong as hits
# AF4-AF9 inh – blocks AF4 peptide binding to human AF9; P42568; AlphaScreen, biotin-AF4 peptide binding to FLAG-AF9; inhibition, % at 10 µM; actives 0.47% (n = 350,000); AID 651704;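 active means every replicate reaching a set inhibition limit, whatever the replicate mean, cut at about 25% in these data; inconclusive means mean inhibition reaches that limit but some replicates miss it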;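 further: 0% = plate neutral control median and 100% = total signal loss; the record names both 10 and 1 µM as test concentration; the first replicate is given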
# Target sequence (P42568 whole entry, looked up): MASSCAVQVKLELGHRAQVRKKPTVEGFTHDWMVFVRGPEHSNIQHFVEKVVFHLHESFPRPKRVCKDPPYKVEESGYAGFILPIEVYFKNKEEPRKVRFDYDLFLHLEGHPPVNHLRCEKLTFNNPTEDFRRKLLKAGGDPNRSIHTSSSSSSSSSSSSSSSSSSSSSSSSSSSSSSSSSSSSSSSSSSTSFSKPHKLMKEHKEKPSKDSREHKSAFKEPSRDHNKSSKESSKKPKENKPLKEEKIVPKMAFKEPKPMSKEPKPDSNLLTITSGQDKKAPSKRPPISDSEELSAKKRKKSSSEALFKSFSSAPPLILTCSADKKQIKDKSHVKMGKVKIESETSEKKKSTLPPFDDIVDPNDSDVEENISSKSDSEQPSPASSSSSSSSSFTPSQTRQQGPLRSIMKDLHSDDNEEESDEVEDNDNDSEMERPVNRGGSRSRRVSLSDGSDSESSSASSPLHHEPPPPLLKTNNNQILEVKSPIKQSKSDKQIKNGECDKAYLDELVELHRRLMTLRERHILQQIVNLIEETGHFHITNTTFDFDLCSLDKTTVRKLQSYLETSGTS
# Beta cell apopt – beta cell apoptosis inhibition | INS-1E cytokine-induced death, ATP luminescence, 48 h; percent of positive-control rescue, neutral wells zero | protection from apoptosis, % (concentration not given with the values) | actives 0.8% (n = 300,000) | AID 435005;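 active means all replicates at 75% or more, or half of them and the mean; inconclusive means half reach 75% but not the mean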;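 further: 0% = cytokine-treated negative control wells and 100% = positive control rescue; higher means more ATP so stronger rescue from cytokine killing; wells of about 40 µL received 100 nL stock; the first replicate is given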
# A1 inh – inhibitors of the anti-apoptotic protein A1, read as caspase activation | actives 0.066% (n = 330,000) | AID 2462 | caspase activation, % (no concentration beside the values) | MEF A1-2A-BIM cells, Caspase-Glo 3/7 luminescence, 3 h; percent of clofoctol response, vehicle zero;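 active means over half of replicate activation scores above 10%, or exactly half above 10 with the replicate mean above 10; inconclusive means replicate mean below 10 yet half the replicates above 10; inactive means over half of replicates below 10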;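 further: wells of about 30 µL received 50 nL stock; many hits fall short of the cut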
# rRNA inh HTS OD600 – second read-out of rRNA inh HTS, no call of its own (marks repeat the call); OD600 change, %; measured here: OD600 growth;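 optical density of the mix in the first replicate; 0 = DMSO median and -100 = no signal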
# rRNA inh HTS RFP – recorded beside rRNA inh HTS, whose call it bears; RFP signal change, %; measured here: RFP humanized mutant strains;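 first replicate; 0 = DMSO median and -100 = no signal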
# Starred values were filed as active, the others as inactive; ? = inconclusive; . = not tested or not shown; & = joins results of further samples.
# Sequence of screens: T cruzi repl, A1 inh, AF4-AF9 inh, rRNA inh HTS RFP, rRNA inh HTS OD600, RanGTP-Impb inh, Vif A3G, Beta cell apopt, Calb FLC, rRNA inh HTS
CNC(=O)c1cc(Nc2nnc(C)c3ccccc23)ccc1OC
 : -1, -0.7, ., ., ., 2.9, 1%, -4, -1, .
COc1nc(Nc2cccc(C)c2)nc(N2CCCCC2)n1
 : 21, 0.7, ., ., ., 4.4, -3%, 22, 3, .
CC(=O)NCCc1nc2ccccc2n1CCOc1ccc(C)cc1
 : -8, 0.6, 3.5, -6.0, -15, -0.6, 0%, -2, -3, -18
Cc1cc(C)nc(NC2=NCC(=O)N2c2cc(Cl)cc(Cl)c2)n1
 : -31, 0.3, ., ., ., 0.1, -1%, 5, 1, .
CC(Oc1ccccc1)C(=O)N=C1SC2CS(=O)(=O)CC2N1CCc1ccccc1 (centres undefined)
 : 5, -0.5, ?, -4.8, -27, 11, 4%, 2, 18, -24
CC(Sc1nnc(-c2ccccc2F)n1C1CC1)C(=O)N1CCCC1 (centres undefined)
 : ., 0.2, -5.0, 0.9, 5, ., ., -6, ., 0
COc1ccc(-n2cc(C(=O)c3ccccc3O)cn2)cc1
 : 4, -9.7, 2.9, -4.3, -17, 11, 9%, 2, 65, -8
COc1ccccc1C(=O)NN(C)C1=NS(=O)(=O)c2ccccc21
 : -10, 0.8, 3.7, -1.1, 4, 3.4, -2%, -7, 6, 6
CCN(CC)CCCN(C(=O)c1ccc(Br)cc1)c1nc(-c2ccc(OC)cc2)cs1
 : 35, 0.2, 31*, -13, -77, 5.4, ., 16, -23, -51
CC(=O)Nc1ccc(NC(=O)C2CCN(C(=O)NC3CCCCC3)CC2)cc1
 : -5, -0.2, 1.5, -2.9, 10, -4.6, -4%, -1, 4, 2
COCCCNC(=S)N/N=C/c1ccc2ccccc2c1
 : -13, 0.0, 0.9, 3.9*, -7.4*, -0.3, -9%, ., 2, -32*
COc1ccc(Cc2nc3ccc(C(=O)NCc4cc(C)no4)cc3o2)cc1
 : -7, -0.5, 0.0, -0.9, 7, 5.0, ., 0, 6, 6
CCOC(=O)C1Cn2c(nc3c(c2=O)C(C)(C)Cc2ccccc2-3)S1 (centres undefined)
 : 14, -2.3, ., ., ., 9.9, 22%, -16, -4, .
O=C(Nc1ccc(N2CCN(C(=O)c3ccco3)CC2)cc1)C(c1ccccc1)c1ccccc1
 : 23, -0.1, ., ., ., -1.2, 24%, 12, 20, .
Cc1ccc(S(=O)(=O)CCC(=O)N(C)c2c(N)n(Cc3ccccc3)c(=O)[nH]c2=O)cc1
 : ?, 0.2, -15, -1.3, 0, 0.1, 3%, 2, 1, -1
N=c1c2c3c(sc2ncn1CCCN1CCOCC1)CCCCC3
 : 17, 0.0, ., ., ., -2.4, ?, 4, -23, .
Cc1cccc([C@@H]2[C@@H]3C(=O)N(Cc4ccccc4)C(=O)[C@@H]3[C@]3(C)C(=O)N(c4ccc(Br)cc4)C(=O)N23)c1
 : 43, 0.8, ., ., ., 9.6, ., -1, 19, .
CC(Oc1ccccc1F)C(=O)NCCN1CCCCC1 (centres undefined)
 : 2, 0.6, ., ., ., -1.6, 4%, -1, -2, .
Cn1cnc([N+](=O)[O-])c1SCC(O)CN1CCCCC1 (centres undefined)
 : 0, 0.2, -1.8, 3.6, 12, -1.6, -1%, 1, -23, 14
CCn1c(SCC(=O)N(C)C)nc2cc(S(=O)(=O)N3CCCCC3)ccc21
 : 3, 0.4, 2.4, 0.4, -6, 3.0, ., 1, -8, -3
CC(C)N1CCN(Cc2nc(-c3ccccc3)cs2)CC1CCO (centres undefined)
 : 5, -0.5, ., ., ., -2.0, -1%, 0, 0, .
O=S(=O)(Nc1ccc(-n2cccc2)cc1)c1ccc(Cl)c(Cl)c1
 : ., 0.1, 0.2, -2.3*, -35*, -1.3, ., 2, 11, -45*
CC(/C=N\Nc1nnc2c(n1)[nH]c1c(C)cccc12)=C\c1ccco1
 : -33, 0.5, -0.2, -3.4, 4, 3.0, 13%, 16, 0, 6
COc1ccc(C(O)P(=O)(OC(C)C)OC(C)C)cc1OC (centres undefined)
 : -1, ., -5.7, -1.6, 11, -2.7, ., ., -3, 11
CCOC(=O)C1(Cc2ccc(Cl)cc2)CCN(C(=O)CCc2ccncc2)CC1
 : 24, 0.1, 0.4, -2.3, -30, -0.3, ., 0, -21, -27
NS(=O)(=O)c1cccc(NS(=O)(=O)c2ccc(/C=C/C(=O)O)cc2)c1
 : 0, -0.1, -0.7, 2.5, 3, 0.8, 9%, -4, 1, 15
CCOc1cc(NC(=O)c2ccco2)c(OCC)cc1NC(=O)c1cc(OC)c(OC)c(OC)c1
 : 14, -0.3, ., ., ., ?, -1%, 27, -10, .
Cc1ccc(S(=O)(=O)N2CCC(C(=O)NCCCN3CCCC3=O)CC2)cc1C
 : 9, -0.3, -1.0, 0.4, 18, 5.2, ., 1, -10, 5
Nc1ccccc1OCCOCCOc1ccccc1N
 : 3, 1.7, ., ., ., ?, 2%, ., -18, .
CN(C(=O)CSc1nnc(-c2ccc(OC(F)F)cc2)n1N)C1CCS(=O)(=O)C1 (centres undefined)
 : -3, 0.8, -2.7, -3.9, 5, 3.7, 0%, ., 0, 3
COc1cccc(NC(=O)Nc2cccc(C)n2)c1
 : -2, -1.6, -12, 1.6, 4, -0.4, 3%, -1, 7, 13
O=C(O)C1CCCN1C(=O)C12CC3CC(CC(C3)C1)C2 (centres undefined)
 : -6, 0.6, -4.6, 1.7, 16, -4.0, ., -5, -7, 9
COc1ccc(NC(=O)CN2C(=O)CSc3ncccc32)cc1
 : -17, 0.4, 0.6, -1.9, 2, -3.3, ., 0, 1, -7
C/C(CC(=O)Nc1cc(C)ccn1)=N\NC(=O)C(=O)Nc1cccc(C)c1
 : -17, -0.8, 1.3, ., ., 0.7, 4%, -12, -8, .
Cc1ccc(S(=O)(=O)N(C)Cc2ccc(C(=O)NN=C(CC(C)C)CC(C)C)cc2)cc1
 : 2, 1.2, 6.1, -0.8, -1, -2.6, 7%, 5, 6, -8
CCOC(=O)C(CC)n1cnc2c(nnn2-c2ccc(OC)cc2)c1=O (centres undefined)
 : -10, 0.4, ., ., ., 3.9, -3%, -3, -17, .
O=C(NC1CCCCC1)C(c1cccs1)N(Cc1cccs1)C(=O)c1cccs1 (centres undefined)
 : 3, 0.4, ., ., ., -2.0, -2%, -6, -8, .
NS(=O)(=O)c1ccc(CCNC(=O)C(=O)Nc2cc3c4c(c2)CC(=O)N4CCC3)cc1
 : -4, -0.4, -1.4, -0.2, 8, -0.4, ., -1, -14, 4
O=C(NCc1cccc(C(F)(F)F)c1)C1CC(c2ccccc2F)=NO1 (centres undefined)
 : -4, ?, ., -6.7, -12, 0.3, ., -5, 16, -6
O=C(c1ccc2ccccc2c1)N1CCN(c2ccc(O)cc2)CC1
 : -5, 0.8, ., ., ., 2.8, 32%, -14, ?, .
CC(C(=O)N1CCc2ccccc21)N1CCN(c2cccc(C(F)(F)F)c2)CC1 (centres undefined)
 : 29, 0.4, -15, -1.6, -28, -0.8, ., -11, 1, -11
COc1cc(Br)c(S(=O)(=O)Nc2c(C)n(C)n(-c3ccccc3)c2=O)cc1OC
 : 8, -0.1, ., ., ., 3.3, 3%&-4%, 0, 2, .
CNCc1c(OCc2ccc(F)cc2)ccc2ccccc12
 : 26, -0.3, 0.5, 2.1, 2, -2.4, 8%, 14, -27, 13
CCOC(=O)Cc1nnc(NC(=O)c2ccco2)s1
 : -17, -0.8, ., ., ., 1.2, -3%, -5, -9, .
Cc1ccc(-c2nc(SCC(=O)NCC3CCCO3)c(-c3ccc(C)cc3)[nH]2)cc1 (centres undefined)
 : 7, ., 3.5, -2.4, 11, 1.2, -1%, -9, 2, 4
CSc1ncccc1C(=O)OCC(=O)NCc1ccc2c(c1)OCO2
 : 4, -0.3, -2.0, ., ., -1.3, -12%, -3, -25, .
N#Cc1c(NC(=O)COC(=O)c2ccc(S(=O)(=O)N3CCCC3)cc2)sc2c1CCCCC2
 : 4, -0.3, -4.0, 12, 12, 4.7, 19%, -8, -2, 3
Cc1ccc(NC(=O)C(=O)Nc2ccccn2)cc1
 : 5, -7.1, -5.1, -5.6, 16, 0.4, 24%, -4, -6, 17
Cc1ccc(C(=O)NC(=S)Nn2cnnc2)cc1
 : -6, -0.4, ., ., ., 4.9, ?, -4, -18, .
COc1cccc(N2CCN(C(=O)CCc3nnc4ccc(N5CCOCC5)nn34)CC2)c1
 : -7, -0.3, 5.4, -1.9, 6, -0.2, ., 3, -14, 3
Cc1ccc(C(C(=O)NCc2ccco2)N(C(=O)CNC(=O)c2cccs2)c2ccc(C)cc2C)cc1 (centres undefined)
 : -6, 0.0, -49, -0.3, 7, 0.8, 23%, 25, 16, 14
CCCCNC(=S)Nc1ccc(Oc2ccccc2)cc1
 : ., -0.2, 0.7, -13, -80, -0.7, -6%, 1, -32, -53
CC(C)(C)NC(=S)Nc1cccc(C(F)(F)F)c1
 : 0, 0.0, -2.1, -13*, -17*, 1.3, ?, -3, -2, -48*
CCOC(=O)C1=C(C)OC(N)=C(C#N)C1c1ccc(OC)c(C)c1OC (centres undefined)
 : 1, -0.2, ., ., ., ., 18%, 6, 36, .
O=C(c1nn2c(C(F)(F)F)cc(-c3cccs3)nc2c1Cl)N1CCCc2ccccc21
 : 30, 1.0, ., ., ., -3.4, 5%, 4, -1, .
CN(C)CCCN1C(=O)CSC1c1ccccc1 (centres undefined)
 : -8, 0.5, -6.5, -1.5, 9, 7.5, 2%, -2, 5, 13
COc1ccc(CCNC(=S)Nc2cccc(C)c2C)cc1
 : 1, 1.3, ., ., ., 27*, 2%, 4, -4, .
Cc1cc(Cl)ccc1OCC(=O)N(Cc1ccco1)C1CCS(=O)(=O)C1 (centres undefined)
 : -15, 0.8, -3.0, 5.6, -3, -2.2, -9%, -3, 17, -10
COc1ncccc1C(=O)N1CCCC(N2CCN(c3cccc(Cl)c3)CC2)C1 (centres undefined)
 : 14, 0.1, 2.1, 0.0, 4, -4.5, ., -4, -3, 5
O=C(NC(=O)c1ccccc1)Nc1ccccn1
 : -19, -7.4, 1.8, -1.4, 20, 0.2, ., 41, -7, 3
C/C(CC(=O)N1CCN(C=O)CC1)=N\NC(=O)c1ccc([N+](=O)[O-])cc1
 : -3, 0.0, -6.2, 0.7, -2, -1.8, ?, 4, -20, -7
Cc1c(CC(=O)N[C@@H](C)C(=O)O)c(=O)oc2c(C)c3occ(-c4ccccc4)c3cc12
 : -11, 0.3, -3.2, -3.9, -27, 6.4, 3%, -7, -1, -20
CCOC(=O)[C@H]1[C@H]2COc3ccc(Cl)cc3[C@@H]2N2C(=O)[C@@H](C)NC(=O)[C@@]12C
 : ., 0.0, 0.3, 2.8, 1, ., ., 1, ., 5

# An excerpt; count on the stated rates, not on these rows.
